MLL AF4-AF9 inh: MLL-AF4/AF9 protein interaction inhibition; AlphaScreen, biotin-AF4 peptide binding to FLAG-AF9; inhibition, % at 10 µM; 350,000 compounds, 0.47% hits;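 active = every replicate reaching a set inhibition limit, whatever the replicate mean, cut at about 25% in these data; inconclusive = mean inhibition reaches that limit but some replicates miss it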;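 note: 0% = plate neutral control median and 100% = total signal loss; the record names both 10 and 1 µM as test concentration; the first replicate is given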
Target sequence (P42568 whole entry, looked up): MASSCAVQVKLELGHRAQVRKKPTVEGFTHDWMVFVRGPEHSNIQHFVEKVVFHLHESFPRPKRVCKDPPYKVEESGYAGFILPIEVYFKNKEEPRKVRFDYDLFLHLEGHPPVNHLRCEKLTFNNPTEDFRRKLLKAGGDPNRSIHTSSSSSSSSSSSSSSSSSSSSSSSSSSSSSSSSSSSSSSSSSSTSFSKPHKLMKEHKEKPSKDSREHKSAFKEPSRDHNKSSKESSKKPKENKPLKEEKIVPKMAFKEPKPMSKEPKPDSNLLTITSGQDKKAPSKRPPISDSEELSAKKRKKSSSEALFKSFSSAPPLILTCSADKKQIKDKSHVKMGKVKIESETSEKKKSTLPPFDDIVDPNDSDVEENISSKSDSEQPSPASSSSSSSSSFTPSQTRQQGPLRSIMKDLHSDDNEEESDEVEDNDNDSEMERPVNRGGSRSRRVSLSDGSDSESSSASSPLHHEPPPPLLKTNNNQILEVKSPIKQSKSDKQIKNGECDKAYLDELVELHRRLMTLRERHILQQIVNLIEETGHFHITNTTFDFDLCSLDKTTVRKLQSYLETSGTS
Bfl-1 A1 inh: inhibitors of the anti-apoptotic protein A1, read as caspase activation; 330,000 compounds, 0.066% hits; MEF A1-2A-BIM cells, Caspase-Glo 3/7 luminescence, 3 h; percent of clofoctol response, vehicle zero; caspase activation, % (test concentration not listed);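 active = over half of replicate activation scores above 10%, or exactly half above 10 with the replicate mean above 10; inconclusive = replicate mean below 10 yet half the replicates above 10; inactive = over half of replicates below 10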;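 note: wells of about 30 µL received 50 nL stock; many hits fall short of the cut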
Calb FLC: affects C. albicans growth with fluconazole | C. albicans CaCi-2 (fluconazole-resistant clinical isolate) + fluconazole, Alamar Blue growth, 48 h | growth inhibition, % (no concentration beside the values) | 300,000 compounds, 0.57% hits;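 active = most replicates above 75%; inconclusive = exactly half above 75%; inactive = most below 75%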;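 note: all wells also contain fluconazole at 8 µg/ml as a sub-toxic cotreatment; 0% = median of DMSO wells and 100% = median of geldanamycin control wells; wells of about 8 µL received 7.5 nL stock; the first replicate is given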
T cruzi inh: blocks replication of Trypanosoma cruzi | T. cruzi beta-gal in NIH3T3, luminescence, 90 h | inhibition, % (no concentration beside the values) | 300,000 compounds, 1.4% hits | AID 1885;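 active = mean inhibition across valid replicates above about 55%, limit read from the data; inconclusive = mean below that limit but half or more replicates reach it; inactive = mean below it, under half of replicates reach it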;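 note: signal also drops with host cell toxicity which is not excluded here; 0% = plate median of DMSO wells and 100% = zero luminescence signal; higher percent means less beta-gal luminescence so fewer parasites; stock transfer was 50 nL into about 50 µL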
Beta apoptosis: blocks beta cell apoptosis | INS-1E cytokine-induced death, ATP luminescence, 48 h; percent of positive-control rescue, neutral wells zero | protection from apoptosis, % (test concentration not listed) | 300,000 compounds, 0.8% hits | AID 435005;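 active = all replicates at 75% or more, or half of them and the mean; inconclusive = half reach 75% but not the mean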;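 note: 0% = cytokine-treated negative control wells and 100% = positive control rescue; higher means more ATP so stronger rescue from cytokine killing; wells of about 40 µL received 100 nL stock; the first replicate is given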
Ecoli rRNA inh: inhibits bacterial ribosomal RNA function over humanized ribosomes. 350,000 compounds, 1.6% hits. E. coli WT GFP vs humanized-ribosome RFP mutants, fluorescence, 24 h; hits give low values; DMSO median 0, no signal -100. AID 720706. GFP signal change (wild-type ribosome), % (test concentration not listed);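 active = significant combined selectivity score with lowered wild-type GFP, culture density cut under 30%, mutant RFP and density less affected; inactive = any of these conditions unmet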; note: one replicate is shown; some compounds called inactive have numbers as strong as hits
RanGTP-Impb inh: disruptors of Ran-importin-beta complex formation – biochemical, FRET, CFP-Ran, YFP-importin-beta, homogeneous, primary screen; cell-free CFP-Ran/YFP-importin-beta FRET ratio; inhibition, % (test concentration not listed); 300,000 compounds, 1.1% hits;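 active = most replicates above 15%; inconclusive = exactly half above 15%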;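 note: 0% = DMSO wells and 100% = Ran loaded with GDP instead of GTP; wells of about 40 µL received 100 nL stock; the first replicate is given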
Vif A3G: inhibitors of Vif binding to APOBEC3G peptide, primary screen, biochemical, TR-FRET, GST-Vif 1-94, biotin-A3G peptide, dose response retest (AID 1117319) | TR-FRET GST-Vif / biotin-A3G peptide binding; higher % means a stronger effect; test concentration not given here; strong numbers were not always called active | inhibition, %, or IC50 in µM where a hit was titrated | 260,000 compounds, 0.57% hits;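 active = above the screen mean plus three standard deviations and confirmed in dose response; inconclusive = results disagree or hit not tested in dose response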;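 note: Vif residues 1-94 fused to GST binding biotinylated APOBEC3G peptide 110-148; 0% = full assay without inhibitor and 100% = GST in place of GST-Vif; retest series ran down from 100 µM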
Ecoli rRNA inh OD600: also measured in Ecoli rRNA inh; calls as there; OD600 change, %; measured here: OD600 growth;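 optical density of the mix in the first replicate; 0 = DMSO median and -100 = no signal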
Ecoli rRNA inh RFP: second read-out of Ecoli rRNA inh, no call of its own (marks repeat the call); RFP signal change, %; measured here: RFP humanized mutant strains;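 first replicate; 0 = DMSO median and -100 = no signal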
* hit, by the source's call; ? = inconclusive; nt = no result given; & = joins results of further samples.

SMILES	MLL AF4-AF9 inh	Bfl-1 A1 inh	Calb FLC	T cruzi inh	Beta apoptosis	Ecoli rRNA inh	Ecoli rRNA inh OD600	Ecoli rRNA inh RFP	RanGTP-Impb inh	Vif A3G
CC1=C(C(N)=O)C(c2ccc(Cl)cc2)NC(=O)N1 (stereo unspecified)	nt	0.8	-5.2	-14.8	1.6	nt	nt	nt	5.7	3.0%
C/C(=N\NC(=O)c1ccc2ccccc2c1)c1cccs1	-3.5	-0.5	1.0	nt	6.5	-18.5	-9.7	-0.7	nt	nt
Cn1cc(Cl)c(C(=O)NNC(=S)NC2CCCCC2)n1	nt	1.0	6.1	-5.1	-10.9	nt	nt	nt	3.9	?
CNC(=S)NNC(=O)c1ccc(=O)n(Cc2ccc(Cl)cc2Cl)c1	-2.1	0.0	-2.4	-19.1	nt	-1.6	-3.9	0.8	2.1	3.6%
CCn1cc(CNC(=O)C2CCC(=O)N(Cc3ccc(Cl)cc3)C2)cn1 (stereo unspecified)	-5.2	-0.2	0.0	-14.1	-0.5	18.1	22.9	7.8	1.3	nt
O=C(c1cc(Br)c(Br)s1)N1CCOCC1	12.4	1.9	-1.8	2.2	-6.5	6.0	5.1	-3.0	nt	-6.7%
Cc1ccc(NC(=O)C2CCCCC2C(=O)O)cc1Cl (stereo unspecified)	-2.7	0.1	5.1	-3.1	-1.4	0.6	-6.8	0.6	2.0	nt
C=CCn1nnnc1SCC(=O)Nc1ccccc1C(=O)OC	nt	-0.2	-5.1	-13.0	-7.0	nt	nt	nt	6.8	-2.1%
O=C(NCc1cccs1)C1CCN(S(=O)(=O)c2ccc3c(c2)OCCO3)CC1	nt	0.1	-11.4	-17.8	1.5	nt	nt	nt	-3.1	-1.0%
c1coc(CNc2nc(N3CCCCC3)nc3ccccc23)c1	nt	0.3	-0.3	48.5	21.6	nt	nt	nt	-1.8	-7.5%
CN(C)CCNc1nc2c(c(=O)[nH]c(=O)n2C)n1CC(O)COc1ccc(Cl)cc1Cl (stereo unspecified)	nt	-0.2	-2.1	19.2	5.0	nt	nt	nt	?	4.9%
COCCCNC(=O)c1ccc(Cn2c(=O)[nH]c3ccccc3c2=O)cc1	-3.8	0.3	nt	nt	-3.6	6.5	-0.8	-3.4	nt	-4.0%
Cc1cccc(NC(=O)Cn2nnc3sc4c(c3c2=O)CC(C)(C)OC4)c1	2.4	0.8	-13.2	11.7	-8.7	-8.9	-1.2	-3.8	1.7	8.0%
O=C(CCCCCNC(=O)c1ccccc1)N=Nc1c(O)[nH]c2c(Br)cc(Br)cc12	nt	1.1	12.6	20.3	-0.3	nt	nt	nt	4.8	12.4%
Cc1ccc(S(=O)(=O)N2[C@@H](c3cccc(Cl)c3)C(C(=O)O)=CC[C@H]2c2ccc(C(C)C)cc2)cc1	-1.4	0.3	nt	nt	-3.6	-2.9	2.3	-19.4	nt	nt
CCc1nn(CCCC(=O)NCc2cc(Br)ccc2OC)c(=O)c2cc3occc3n12	1.1	0.5	1.7	-9.1	8.0	2.5	-13.4	3.9	-2.3	nt
O=C(NCC(c1ccco1)N1CCN(c2ccccc2)CC1)C(=O)NC1CCCC1 (stereo unspecified)	0.7	0.1	7.5	-6.6	nt	11.1	3.9	6.6	-0.2	-3.6%
CC(=C\c1ccccc1)/C=C1/SC(=S)N(CCC(=O)Nc2ccccn2)C1=O	nt	-0.9	-5.7	13.7	-1.3	nt	nt	nt	?	-3.6%
COc1cc(NC(=S)N2CCN(S(=O)(=O)c3ccc(C)cc3)CC2)cc(OC)c1	0.2	0.4	1.2	-0.3	4.8	3.5	12.1	2.0	0.1	nt
CC(C)CNC(=O)c1ccccc1N(Cc1ccccc1)S(C)(=O)=O	-3.5	0.2	2.2	-3.0	-6.4	9.9	12.4	-0.9	2.6	nt
CCOC(=O)C1(Cc2ccc(O)cc2)NC(c2ccccc2F)C2C(=O)N(C)C(=O)C21 (stereo unspecified)	nt	1.3	2.4	5.5	-4.1	nt	nt	nt	0.2	0.0%
CCCCN(C)C(=O)c1cc2c(Cl)nc3ccccc3c2s1	-3.1	1.2	16.4	3.7	-2.2	-8.5	-44.0	-1.7	8.3	-3.5%
COc1ccc(-c2cc(C(=O)N3CCN(C(=O)c4ccccc4F)CC3)[nH]n2)cc1	-1.1	0.3	8.1	5.8	nt	0.1	0.0	-3.8	1.0	-0.8%
FC(F)(F)c1cc(Oc2ccc(Cl)cc2)ncc1-c1nnc(-c2ccc(Cl)cc2)o1	-7.4	0.0	-2.8	-19.5	2.4	0.3	2.5	-4.6	2.2	nt
CS(=O)(=O)N1CCN(Cc2ccc([N+](=O)[O-])cc2)CC1	1.1	0.5	-9.7	-2.6	-1.1	23.4	15.9	1.7	nt	nt
Cc1cc(=O)[nH]c(NN)n1	-1.4	-0.5	-8.3	-3.6	5.5	7.1	2.5	-2.7	3.3	19.8%
CCOC(=O)C1=C(O)C(=O)N(Cc2ccccc2)CC1	-1.2	-0.3	-9.0	-7.6	-0.3	10.6	12.0	0.9	-3.9	7.7%
O=C(NCC(c1ccco1)N1CCCC1)c1ccc(S(=O)(=O)Nc2ccc(F)cc2)cc1 (stereo unspecified)	4.5	1.0	nt	nt	4.2	8.5	3.0	10.5	nt	0.6%
CS(=O)(=O)c1ncc(Cl)c(C(=O)Nc2ccc(N3CCOCC3)cc2)n1	nt	3.3	-5.9	42.3	-6.3	nt	nt	nt	1.2	?
CC(C)NC(=O)C1c2ccccc2Oc2ccccc21	-1.7	0.6	-4.6	-5.2	nt	6.4	10.1	3.1	-2.2	nt
CN(C)C(=S)c1ccccc1	-6.4	0.9	-5.3	nt	-6.1	-0.9	2.8	-3.6	2.3	-5.6%
CCN(c1ccccc1)S(=O)(=O)c1ccc(Cl)c(NC(=O)CNCc2ccccc2OC)c1	1.4	1.1	nt	nt	-3.4	1.0	-10.6	5.4	nt	-9.5%
Fc1ccc(NC(=S)Nc2cccnc2)c(Cl)c1	1.4	-0.3	0.1	-7.3	-8.5	6.6	3.2	-1.5	0.8	-5.5%
O=C(Nc1ccccc1N1CCOCC1)c1cccc([N+](=O)[O-])c1	nt	1.2	-24.6	-4.7	-2.4	nt	nt	nt	-4.3	3.9%
Cc1ccc(NC(=O)CSc2nccc(=O)[nH]2)c(S(=O)(=O)N2CCOCC2)c1	nt	0.6	2.5	20.2	5.1	nt	nt	nt	7.8	3.2%
Cc1cc(OCC(=O)N2CCN(c3ccccc3)CC2)c2c(C)cc(=O)oc2c1	0.0	-0.7	-2.1	7.2	4.2	23.7	2.2	0.4	-6.9	-0.5%
CCOC(=O)C1(CC2CCCCO2)CCN(Cc2nccn2-c2ccc(OC)cc2)CC1 (stereo unspecified)	3.5	0.7	-20.2	-16.9	1.8	0.7	-8.1	2.0	-1.5	7.6%
CCOC(=O)C1=C(CC)Nc2ccccc2N/C1=N\S(=O)(=O)c1cccc(C(C)=O)c1	-3.4	-0.2	nt	nt	4.1	-16.3	-23.6	-6.9	nt	nt
O=C(COc1ccccc1/C=C1/NC(=O)NC1=O)Nc1ccccc1	-1.7	0.2	-13.2	2.9	-4.8	-26.2*	-18.7*	7.0*	-1.5	-1.2%
O=C(O)c1cc2cc(Cl)ccc2oc1=O	nt	-1.4	1.9	-13.8	-2.5	nt	nt	nt	-0.1	-11.1%
Cc1nn(CCO)c2nc(-c3cccs3)cc(C(F)(F)F)c12	10.0	0.8	17.3	-9.9	-4.2	-11.1	3.2	0.4	0.2	8.2%
CC(=O)c1ccccc1NC(=O)C1CC(=O)N(c2ccc3c(c2)OCCO3)C1 (stereo unspecified)	-4.9	0.4	nt	nt	2.6	2.8	-7.2	-2.1	nt	nt
O=C(C1CCCO1)N1CCN(S(=O)(=O)c2cccc3nsnc23)CC1 (stereo unspecified)	nt	0.1	-1.7	nt	-5.2	nt	nt	nt	0.3	-2.2%
COc1ccc(CNC(=O)CCc2nnc3ccc(N4CCC5(CC4)OCCO5)nn23)cc1	-1.3	1.1	-4.0	-3.5	-1.6	6.3	6.7	-1.5	4.4	-3.3%
O=[N+]([O-])c1ccc(OCCCOc2cccc3cccnc23)cc1	1.8	0.5	1.7	8.3	-8.4	4.6	10.6	1.2	-2.0	nt
CCOC(=O)n1c(=O)n(Cc2ccccc2Cl)c2ccccc21	nt	1.1	-6.2	13.5	0.5	nt	nt	nt	-2.7	-8.7%
COc1ccccc1C(O)(C(=O)NNc1cccc(C)c1)c1ccccc1OC	1.0	0.6	3.6	3.9	-1.6	-2.9	-9.9	-4.2	2.1	-7.4%
CC(C)n1c(=NC(=O)c2ccco2)c(C#N)cc2c(=O)n3ccccc3cc21	nt	-0.3	-13.5	3.7	-4.4	nt	nt	nt	107.2*	>100µM*
COc1ccc(C(=O)Nc2ccc(C(=O)c3ccccc3)cc2)cc1	-9.3	0.0	-10.5	10.1	22.4	22.7	15.4	0.5	0.3	nt
Cc1cccc(N(C(=O)c2csnn2)C(C(=O)NCc2ccccc2)c2cccs2)c1 (stereo unspecified)	-0.3	0.4	-22.9	-3.6	-3.5	2.9	-3.0	-0.2	1.3	nt
C=CCn1c(SCC(=O)NC(=O)NCc2ccco2)nc2sc(CC)cc2c1=O	nt	1.1	18.4	8.1	16.2	nt	nt	nt	-0.8	10.1%
COC(=O)N/N=C(/c1ccccc1)C1CCCCC1	nt	-0.1	9.7	4.8	nt	nt	nt	nt	2.6	-6.6%
CCCNC(=O)C1CN(S(=O)(=O)c2ccccc2)CCN1S(=O)(=O)c1ccccc1 (stereo unspecified)	nt	0.1	10.7	6.8	nt	nt	nt	nt	-0.1	-2.7%&-4.4%
Nc1nc(SCC(=O)Nc2cc(Cl)ccc2Cl)n[nH]1	7.0	0.7	nt	nt	1.1	-0.7	-7.6	5.3	nt	3.7%
COc1cccc(CN2CCNC(=O)C2CC(=O)NCCn2cccn2)c1OC (stereo unspecified)	2.8	0.1	-5.1	-5.9	-0.5	17.8	9.5	0.9	-1.0	-0.2%
CC(=O)CCc1ccc(Oc2nc(-c3cccnc3)nc3ccccc23)cc1	-1.5	-1.5	1.7	11.7	6.6	9.0	1.1	0.4	4.0	nt
CS(=O)(=O)c1ccc(NC(=O)c2cccc(S(=O)(=O)N3CCN(Cc4ccccc4)CC3)c2)cc1	-1.2	2.8	-12.2	22.5	2.0	-1.4	-13.8	13.2	?	-9.6%
COc1ccc(CC(=O)O/N=C(\N)Cc2ccc(OC)c(OC)c2)cc1	-86.6	1.1	-5.6	11.0	-8.6	-23.6	1.5	18.4	?	4.8%
COc1ccc(N(CC(=O)NC2CCCC2)C(=O)c2ccc(N3CCCCC3)nc2)cc1	nt	0.5	-6.9	14.8	2.2	nt	nt	nt	2.6	7.2%
COc1ccccc1Oc1ccc(N/C=C/C(=O)c2ccco2)cc1	5.4	-0.1	-5.0	21.4	11.4	-6.1	-13.0	0.9	-10.8	-7.6%

Not all compounds are listed; the hit share may differ from the screen's.
